Screening results deposited in PubChem BioAssay by Broad Institute.
NOMO-1 viab = STK33 inhibitor candidate reducing NOMO-1 cell viability. NOMO-1 AML viability, CellTiter-Glo luminescence, 72 h. inhibition, % (concentration not given with the values). AID 2330. hit rate 7.5% among 37,000;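 active = most replicates above 80%; inconclusive = exactly half above 80%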;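 also: wells of about 30 µL received 25 nL stock; 0% = median of vehicle wells and 100% = reference inhibitor level; the first replicate is given; inactives centre near 10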
An asterisk follows results filed as active; u = inconclusive.

SMILES	NOMO-1 viab
COc1ccc(-c2cnn(-c3ccccc3)c2N)cc1OC	30.1
Cc1noc(C)c1S(=O)(=O)Nc1cccc2c1O[C@H](CN(C)CC1CCCCC1)[C@H](C)CN([C@@H](C)CO)C2=O	4.8
N#C/C(=C\c1ccc(O)c(O)c1)C(=O)NCCCCc1ccccc1	8.2
Cc1ccc(S(=O)(=O)N(C)C[C@@H]2Oc3ccc(NC(=O)Nc4cccc5ccccc45)cc3CC(=O)N([C@H](C)CO)C[C@@H]2C)cc1	u
COc1ccc(S(=O)(=O)Nc2ccc3c(c2)CC(=O)N([C@H](C)CO)C[C@@H](C)[C@H](CN(C)Cc2ccc(Oc4ccccc4)cc2)O3)cc1	124.1*
C[C@H](CO)N1C[C@H](C)[C@H](CN(C)C(=O)NC2CCCCC2)Oc2c(NC(=O)C3CCCCC3)cccc2C1=O	32.9
COc1ccccc1C(=O)NCCCN1CCCC1=O	-1.8
C[C@@H]1CN([C@@H](C)CO)C(=O)c2cc(N(C)C)ccc2O[C@@H]1CN(C)C(=O)Nc1ccc(C(F)(F)F)cc1	1.5
C[C@H](CO)N1C[C@H](C)[C@H](CN(C)Cc2ccc(C(F)(F)F)cc2)Oc2ccc(NC(=O)Cc3cn(C)c4ccccc34)cc2C1=O	22.4
Cc1ccc(NC(=O)Cn2c(-c3nonc3N)nc3ccccc32)cc1Cl	2.6
CC(C)Cn1c(SCC(=O)c2ccc(Cl)cc2)nc2ccccc2c1=O	50.6
COc1cc2cc(Oc3ccc4ccc(=O)oc4c3)c(=O)oc2cc1OC1OC(COC(=O)CC(C)(O)CC(=O)O)C(O)C(O)C1O (stereo unspecified)	4.5
Cc1ccc(N(C(C)C(=O)Nc2cc(C(F)(F)F)ccc2Cl)S(C)(=O)=O)cc1C (stereo unspecified)	27.5
c1coc(CNc2ncnc3c2sc2nc(N4CCOCC4)c4c(c23)CCC4)c1	18.8
Cc1ccc(NC(=O)C(C)N(c2ccc(Cl)cc2)S(C)(=O)=O)c(C)c1 (stereo unspecified)	7.9
O=C(NCCc1c[nH]c2ccccc12)Nc1cccc2ccccc12	36.6
COc1ccc(NC(=O)Nc2cccc3c2O[C@H](CN(C)C)[C@@H](C)CN([C@H](C)CO)C3=O)cc1	5.6
O=C(OCc1nc2ccccc2s1)c1ccc([N+](=O)[O-])cc1	-4.2
Cc1ccc(S(=O)(=O)Nc2cccc3c2O[C@@H](CN(C)Cc2ccc4c(c2)OCO4)[C@H](C)CN([C@H](C)CO)C3=O)cc1	7.2
COc1ccc(S(=O)(=O)N(C)C[C@@H]2Oc3ccc(NC(=O)Nc4ccc5c(c4)OCO5)cc3CC(=O)N([C@@H](C)CO)C[C@@H]2C)cc1	64.6
Cc1cccc(C)c1NC(=O)CC(C(=O)O)N(C)C (stereo unspecified)	-11.6
CC(C)NC(=O)Nc1cccc2c1O[C@@H](CN(C)Cc1ccc(C(F)(F)F)cc1)[C@H](C)CN([C@H](C)CO)C2=O	47.8
C[C@@H]1CN([C@@H](C)CO)C(=O)c2cccc(NS(=O)(=O)c3ccc(F)cc3)c2O[C@@H]1CN(C)C(=O)Nc1ccc(F)cc1	22.8
CNC[C@H]1Oc2ccc(NC(=O)Nc3ccc(C(F)(F)F)cc3)cc2CC(=O)N([C@@H](C)CO)C[C@H]1C	5.8

As a working copy, 6 of the compounds above.
SMILES	NOMO-1 viab
Cc1ccc(S(=O)(=O)Nc2cccc3c2O[C@@H](CN(C)Cc2ccc4c(c2)OCO4)[C@H](C)CN([C@H](C)CO)C3=O)cc1	7.2
COc1ccc(S(=O)(=O)N(C)C[C@@H]2Oc3ccc(NC(=O)Nc4ccc5c(c4)OCO5)cc3CC(=O)N([C@@H](C)CO)C[C@@H]2C)cc1	64.6
Cc1cccc(C)c1NC(=O)CC(C(=O)O)N(C)C (stereo unspecified)	-11.6
CC(C)NC(=O)Nc1cccc2c1O[C@@H](CN(C)Cc1ccc(C(F)(F)F)cc1)[C@H](C)CN([C@H](C)CO)C2=O	47.8
C[C@@H]1CN([C@@H](C)CO)C(=O)c2cccc(NS(=O)(=O)c3ccc(F)cc3)c2O[C@@H]1CN(C)C(=O)Nc1ccc(F)cc1	22.8
CNC[C@H]1Oc2ccc(NC(=O)Nc3ccc(C(F)(F)F)cc3)cc2CC(=O)N([C@@H](C)CO)C[C@H]1C	5.8

(more compounds)
SMILES	NOMO-1 viab
Cc1ccc2nc(-c3ccncc3)cc(C(=O)NCc3ccccn3)c2c1	53.9
C[C@H](CO)N1C[C@H](C)[C@H](CN(C)CC2CCCCC2)Oc2c(NC(=O)Nc3ccc4c(c3)OCO4)cccc2C1=O	10.4
C[C@@H]1CN([C@H](C)CO)C(=O)c2cc(NC(=O)CCCN(C)C)ccc2O[C@@H]1CN(C)C(=O)NC1CCCCC1	1.6
C[C@@H]1CN([C@H](C)CO)C(=O)Cc2cc(NC(=O)Cc3ccccc3)ccc2O[C@H]1CN(C)Cc1ccncc1	5.2
COc1c(O)cc2oc(-c3ccc(O)cc3)cc(=O)c2c1O	12.2
COC(=O)C1=NNC(c2ccccc2)(c2ccccc2)C1	u
C[C@H](CO)N1C[C@H](C)[C@@H](CN(C)Cc2ccccc2)Oc2c(NS(=O)(=O)c3cccs3)cccc2C1=O	15.2
C=C1[C@@H]2CC[C@H]3[C@@]4(C)C(C[C@H](OC(=O)[C@]5(C)O[C@@H]5C)[C@]3(C2)[C@@H]1OC(C)=O)[C@](C)(C(=O)OC)CC[C@H]4OC(C)=O (stereo partly specified)	87.7*
C[C@H]1CN([C@@H](C)CO)C(=O)Cc2cc(NC(=O)CCC(F)(F)F)ccc2O[C@@H]1CN(C)CC1CCCCC1	17.6
CC1(C)CC(=O)C2=C(C1)Nc1ccccc1N(C(=S)NCc1ccco1)C2c1cccnc1 (stereo unspecified)	19.1
C[C@@H]1CN([C@H](C)CO)C(=O)c2cccc(NC(=O)C3CCOCC3)c2O[C@H]1CN(C)Cc1ccc(-c2ccccc2)cc1	67.7
CC(=O)O[C@@H]1C[C@@H](C)[C@](O)(CCC2=CC(=O)OC2)[C@@]2(C)CCCC(C)(C)C12 (stereo partly specified)	104.4*

Copied from the list:
Value for C[C@H](CO)N1C[C@H](C)[C@H](CN(C)CC2CCCCC2)Oc2c(NC(=O)Nc3ccc4c(c3)OCO4)cccc2C1=O in NOMO-1 viab: 10.4
Value for C[C@@H]1CN([C@H](C)CO)C(=O)Cc2cc(NC(=O)Cc3ccccc3)ccc2O[C@H]1CN(C)Cc1ccncc1 in NOMO-1 viab: 5.2

Continuation.
SMILES	NOMO-1 viab
CSc1nc(SCC(=O)Nc2cccc(C)c2)c2c3c(sc2n1)CCCC3	30.5
COc1ccc(CCN2C(=O)CSC2=NC2CC2)cc1OC	-14.2
C[C@H]1CN([C@@H](C)CO)C(=O)c2cc(NC(=O)Cn3cnnn3)ccc2O[C@@H]1CN(C)Cc1ccc(C(F)(F)F)cc1	13.6
Cc1cccc(NC(=O)CSc2nsc(SCC(=O)Nc3cccc(C)c3)c2C#N)c1	46.0
CCn1c(SCC(=O)Nc2ccc(C(=O)O)cc2)nnc1-c1ccc(Cl)cc1	31.0
Cc1cc(C(=O)Nc2cccc3c2O[C@H](CN(C)C(=O)Nc2ccc(F)cc2)[C@H](C)CN([C@@H](C)CO)C3=O)n(C)n1	2.0
COc1ccc(NC(=O)Nc2cccc3c2O[C@H](CN(C)S(=O)(=O)c2ccc(OC)cc2)[C@H](C)CN([C@@H](C)CO)C3=O)cc1	5.5
COC(=O)c1ccc(NC(=O)CSc2nnc(-c3ccc(NC(C)=O)cc3)n2C)cc1	11.2
C[C@H]1CN([C@@H](C)CO)C(=O)c2cc(NC(=O)CCC(F)(F)F)ccc2O[C@H]1CN(C)Cc1ccc(C(=O)Nc2ccccc2N)cc1	105.7*
COc1ccc(S(=O)(=O)N(C)C[C@H]2Oc3ccc(NC(=O)C4CCCCC4)cc3CC(=O)N([C@@H](C)CO)C[C@H]2C)cc1	8.5
C[C@H](CO)N1C[C@H](C)[C@H](CN(C)Cc2ccccc2)Oc2c(NC(=O)Nc3ccc(C(F)(F)F)cc3)cccc2C1=O	74.0
COc1ccc(NC(=O)N(C)C[C@@H]2Oc3ccc(NC(=O)CCC(F)(F)F)cc3CC(=O)N([C@H](C)CO)C[C@@H]2C)cc1	16.1

Entries from the list above that have a furan ring, fused or not:
SMILES	NOMO-1 viab
c1coc(CNc2ncnc3c2sc2nc(N4CCOCC4)c4c(c23)CCC4)c1	18.8
CC1(C)CC(=O)C2=C(C1)Nc1ccccc1N(C(=S)NCc1ccco1)C2c1cccnc1 (stereo unspecified)	19.1

More results.
SMILES	NOMO-1 viab
C[C@@H]1CN([C@@H](C)CO)C(=O)c2cc(NC(=O)Nc3ccccc3)ccc2O[C@H]1CN(C)Cc1ccc(Cl)c(Cl)c1	123.6*
O=C(CSc1nc(-c2ccccc2)c2cc(Cl)ccc2n1)N1N=CCC1c1ccccc1 (stereo unspecified)	43.1
C[C@@H]1O[C@@H](OC2C(O[C@H]3[C@H](O[C@H]4CC[C@@]5(C)C(CC[C@]6(C)C5CC=C5C7CC(C)(C)C(O)C(O)[C@]7(C)CC[C@]56C)C4(C)C)O[C@H](C(=O)O)[C@@H](O)[C@@H]3O)OC(CO)C(O)C2O)[C@H](O)[C@H](O)[C@H]1OC1OCC(O)C(O)C1O (stereo partly specified)	-4.7
C[C@H](CO)N1C[C@H](C)[C@H](CN(C)CC2CC2)Oc2c(NC(=O)c3nc4ccccc4s3)cccc2C1=O	28.3
C[C@H]1CN([C@@H](C)CO)C(=O)Cc2cc(NC(=O)C3CC3)ccc2O[C@@H]1CN(C)S(=O)(=O)c1cccs1	16.2
CC(C)(Oc1ccc(Cl)cc1)C(=O)Nc1cccc(-c2nc3ncccc3o2)c1	42.3
C[C@@H]1CN([C@H](C)CO)C(=O)Cc2cc(NC(=O)CCN3CCOCC3)ccc2O[C@H]1CN(C)Cc1ccc(Cl)c(Cl)c1	1.6
Cn1c(SCC(=O)Nc2ccnc3ccccc23)nnc1-c1ccncc1	8.0
C[C@H]1CN([C@@H](C)CO)C(=O)c2cccc(NC(=O)c3nc4ccccc4s3)c2O[C@H]1CN(C)Cc1ccccc1	39.7
COc1ccc(-c2cc3ccccc3oc2=O)cc1NC(=O)COc1ccc(C(C)(C)C)cc1	28.6
CNC[C@@H]1Oc2ccc(NC(=O)NC(C)C)cc2CC(=O)N([C@H](C)CO)C[C@H]1C	3.9
CCc1c(O)nc(SC(C)C(=O)Nc2ccc(Cl)cc2)[nH]c1=O (stereo unspecified)	39.1
Clc1ccc(-c2cn3c4ccccc4nc3n2CCN2CCOCC2)cc1	17.6
O=C(Nc1ccc(Cl)cc1)NC(Cc1ccccc1)C(=O)O (stereo unspecified)	-0.9
COc1ccc(NC(=O)Nc2ccc3c(c2)CC(=O)N([C@@H](C)CO)C[C@H](C)[C@H](CN(C)S(=O)(=O)c2c(C)noc2C)O3)cc1	15.3
C[C@H]1CN([C@@H](C)CO)C(=O)c2cc(NS(=O)(=O)c3ccccc3)ccc2O[C@H]1CN(C)S(=O)(=O)c1ccccc1	-5.9
COC(=O)C1=C(NC(=O)c2cccc(Cl)c2)CCS1	22.2
Cc1ccc(S(=O)(=O)Nc2ccc3c(c2)C(=O)N([C@H](C)CO)C[C@@H](C)[C@@H](CN(C)C)O3)cc1	-7.1
C[C@@H]1CN([C@@H](C)CO)C(=O)c2cccc(N(C)C)c2O[C@H]1CN(C)Cc1ccc(C(F)(F)F)cc1	62.8
COc1ccc(NC(=O)N(C)C[C@H]2Oc3ccc(NC(=O)Nc4c(C)noc4C)cc3CC(=O)N([C@@H](C)CO)C[C@@H]2C)cc1	13.9
COc1cc(OC2OC(COC3OCC(O)(CO)C3O)C(O)C(O)C2O)c2c(-c3ccc(O)c(O)c3)cc(=O)oc2c1 (stereo unspecified)	25.8
C[C@H]1CN([C@@H](C)CO)C(=O)c2cc(NC(=O)C3CCCCC3)ccc2O[C@@H]1CN(C)Cc1ccc2c(c1)OCO2	-9.6
COC(=O)c1ccc(NC(=O)C2CCCCC2C(=O)O)cc1 (stereo unspecified)	17.2
C[C@@H]1CN([C@H](C)CO)C(=O)Cc2cc(NC(=O)Nc3ccc(C(F)(F)F)cc3)ccc2O[C@H]1CN(C)Cc1ccc(-c2ccccc2)cc1	128.3*
Cc1ccc(C(=O)O)cc1S(=O)(=O)NCC1CCCO1 (stereo unspecified)	0.8
Cc1noc(C)c1S(=O)(=O)N(C)C[C@H]1Oc2ccc(NC(=O)NC3CCCCC3)cc2CC(=O)N([C@@H](C)CO)C[C@H]1C	-0.9
Cc1c(C)n(C(=O)CSc2nc3ccccc3s2)c2ccccc12	3.5
CC1(C)Cc2c(C#N)c(OCC(=O)c3ccc(Cl)cc3)nc(-c3ccco3)c2CO1	27.2
CC(C)NC(=O)N(C)C[C@H]1Oc2ccc(NS(=O)(=O)c3ccccc3)cc2C(=O)N([C@@H](C)CO)C[C@@H]1C	4.6
COC(=O)c1cc(C)sc1NC(=S)Nc1cnn(C)c1C(N)=O	-8.5
Cc1cc(Br)ccc1NC(=O)CCCN1C(=O)c2ccccc2C1=O	4.0
COc1ccc(S(=O)(=O)N(C)C[C@@H]2Oc3ccc(NC(=O)C4CC4)cc3C(=O)N([C@H](C)CO)C[C@H]2C)cc1	10.6
C=CCNc1sc(N)c(C#N)c1C(=O)c1ccc(Br)s1	-26.5
C[C@@H]1CN([C@H](C)CO)C(=O)c2cccc(NS(=O)(=O)c3cccs3)c2O[C@@H]1CN(C)Cc1ccc2c(c1)OCO2	10.0
C[C@H](CO)N1C[C@H](C)[C@H](CN(C)C)Oc2c(NC(=O)Nc3ccc(F)cc3)cccc2C1=O	-17.7
C[C@@H]1O[C@@H](O[C@@H]2[C@@H](O)[C@H](O[C@@H]3[C@@H](O)[C@@H](O)[C@H](O[C@H]4[C@H](OC(=O)[C@]56CCC(C)(C)C[C@H]5C5=CCC7[C@@]8(C)C[C@H](O)[C@H](O[C@@H]9O[C@H](C(=O)O)[C@@H](O)[C@H](O)[C@H]9O)[C@@](C)(CO)C8[C@H](O)C[C@@]7(C)[C@]5(C)C[C@H]6O)OC[C@H](O)[C@@H]4O)O[C@H]3C)OC[C@H]2O)[C@H](O)[C@H](O)[C@H]1O (stereo partly specified)	19.2
Cn1nnnc1SCCNCc1cccnc1	28.0
CC(NC(=O)c1ccccc1N)C(N)=O (stereo unspecified)	20.4
C[C@@H]1CN([C@@H](C)CO)C(=O)c2cc(NC(=O)C3CC3)ccc2O[C@@H]1CN(C)C(=O)Nc1ccc2c(c1)OCO2	3.4

Not all compounds are listed, so the mix of outcomes need not match the whole.
